# Assay outcomes: PubChem, NMMLSC
# Autofluor counter – counter-screen for toxin protease inhibitors: compound fluorescence; hit rate 3.1% among 360,000; compound autofluorescence counterscreen, microsphere flow cytometry; stronger effect = higher value; fluorescence intensity (test concentration not listed); AID 624483;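 active = at least 3 SD above the mean of all compounds, about 16000 in these data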;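 also: 100 nL of 1 mM stock went into each well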
# Numbers without * were called inactive. Not all compounds are listed; the hit share may differ from the screen's.
SMILES,Autofluor counter
CCN1C(=O)[C@H]2[C@@H](c3ccc(OC)cc3)N[C@]3(CCCN(CCC(C)C)C3=O)[C@H]2C1=O,3870
COc1cccc(-c2nc(-c3cccc(C)c3)nc3cc(Cl)ccc23)c1,6041
O=C(NC(c1ccc(-c2ccccc2)cc1)c1cnccn1)C1CCN(Cc2ccc(Oc3ccccc3)cc2)CC1 (configuration not stated),3570
CC(=O)OC1CC2OC3C=C(C)CCC3(C)C1(C)C21CO1 (configuration not stated),5361
FC(F)(F)c1ccccc1-c1ccc2nncn2c1,3727
O=c1[nH]nnc2c1ncn2C1OC(CO)C(O)C1O (configuration not stated),5460
CCOC(=O)[C@]12Cc3cc(Cl)ccc3[C@H]1N(C1CCCCC1)C(=O)c1ccccc12,6026
CCCS(=O)(=O)NC(=O)C1(C)CCN(C(=O)c2ccc(C(F)(F)F)cc2)C1 (configuration not stated),3712
O=C(C(=O)N1CCN(c2ccccc2F)CC1)c1cn(CC(=O)N2CCCC2)c2ccccc12,3102
COC(=O)C[C@@H]1C[C@@H]2c3cc(NS(=O)(=O)c4ccc(F)cc4)ccc3O[C@@H]2[C@@H](CO)O1,2909
COc1cccc(C(C)(O)c2nc(-c3ccc4ccccc4c3)cs2)c1 (configuration not stated),3527
C[C@@H]1CN([C@H](C)CO)C(=O)CCCn2cc(nn2)CO[C@H]1CN(C)S(=O)(=O)c1ccccc1C#N,3404
COc1ccccc1C(O)c1ncc(-c2ccccc2C)[nH]1 (configuration not stated),2856
CC(C)Oc1cc(F)ccc1-c1cc(C(=O)NCc2ccccc2)[nH]n1,4073
COCCNc1ncnc2c1ncn2[C@H]1CN(CCOC)C[C@@H](CO)O1,3649
N#CCOc1ccccc1CNC[C@H]1O[C@@H](n2cnc3c(=O)[nH]c(N)nc32)[C@H](O)[C@@H]1O,5744
CCCS(=O)(=O)NC(=O)C1(C)CCN(C(=O)c2nc(C)oc2C)C1 (configuration not stated),3743
OC[C@@H]1CN(Cc2cccs2)C[C@H](n2cnc3c(NC4CCC4)ncnc32)O1,3003
CSc1ccccc1C(=O)C1CCCN(C(=O)c2cccc(Cn3cccn3)c2)C1 (configuration not stated),3852
CNc1cc(-c2cc(OC)ccc2OC)ncn1,4059
COc1ccc(NC(=O)C2Cc3c(-c4cccc(C(C)=O)c4)ccnc3O2)cc1OC (configuration not stated),3029
O=C(O)c1cocc1C(=O)O,3870
Cc1ccc(C)c(S(=O)(=O)N2CCCC2CNC(=O)C(=O)Nc2ccccc2)c1 (configuration not stated),3100
CCCCCC(=O)N1C[C@@H](n2cc(COC(=O)c3ccccc3)nn2)[C@H](O)C[C@@H]1c1ccc(OC)cc1,3334
CCCNC(=O)C1(C)CCN1C(=O)c1cc(C)n(C)n1 (configuration not stated),3860

# Reprinted from the part before: 3 entries, then new ones.
SMILES,Autofluor counter
Cc1ccc(C)c(S(=O)(=O)N2CCCC2CNC(=O)C(=O)Nc2ccccc2)c1 (configuration not stated),3100
CCCCCC(=O)N1C[C@@H](n2cc(COC(=O)c3ccccc3)nn2)[C@H](O)C[C@@H]1c1ccc(OC)cc1,3334
CCCNC(=O)C1(C)CCN1C(=O)c1cc(C)n(C)n1 (configuration not stated),3860
COc1cccc(C(c2nnnn2C(C)(C)C)N2CCC3(CC2)C(=O)NCN3c2ccccc2)c1OC (configuration not stated),5636
COc1ccc(-c2ccc(CN3C(C(C)C)C(=O)N(Cc4cn(CCC5OCCO5)nn4)CCS3(=O)=O)cc2)cc1OC (configuration not stated),3473
Cc1cccc(C)c1NC(=O)C(c1ccccc1OC(F)(F)F)N1CCN(c2ccc(F)cc2)CC1 (configuration not stated),5533
COc1ccccc1CCn1cnc(Cc2cccc(F)c2)c1C(C)C,6588
O=[N+]([O-])c1ccc(N(CCO)CCO)c2c1no[n+]2[O-],3992
C[C@@H]1CN([C@H](C)CO)C(=O)c2cc(Br)cnc2O[C@@H]1CN(C)C(=O)c1cccc(F)c1,4140
COc1ccc2c(c1)C(=O)C1(CC2)OC1c1cccnc1 (configuration not stated),4353
O=c1c(O)c(-c2ccccc2)oc2cc(O)ccc12,5418
CC1(C(=O)O)CCCN1C(=O)c1cccc(OC(F)(F)F)c1 (configuration not stated),3511
O=C(OCc1ccccc1)N1CCCCC1c1c(Cl)cccc1Br (configuration not stated),5627
CC(C)c1ccc(NC(=O)Nc2nnc([C@H]3C[C@H](O)[C@@H](CO)O3)s2)cc1,3781
CCOC(=O)Cn1cc(Cn2c3ccccc3c(=O)n2C(C)C)nn1,5933
COc1cccc(-c2cnc3c(NC=O)cc(-c4cc(OC)c(OC)c(OC)c4)cn23)c1,4189
COc1ccccc1N1CCN(S(=O)(=O)CCNC(=O)c2cccs2)CC1,2824
O=C(Nc1ccc(F)c(Cl)c1)C1Cc2c(-c3cccc(F)c3)ccnc2O1 (configuration not stated),3104
CCN(CC)c1ccc2cc(C(=O)c3cccs3)c(=O)oc2c1,5733
O=C(c1cc(COc2c(F)cccc2F)on1)N1CC[C@@H]2CCCC[C@H]2C1,3975
O=C(Nc1cccc(OC(F)(F)F)c1)c1ccc(-c2cccnc2)c2ccoc12,3643
Nc1nc2ccc(Br)cc2s1,3059
Cc1ccc([C@@H]2C[C@H]3[C@@H](CN2S(=O)(=O)c2ccc(Cl)cc2)C(=O)C[C@@H](c2cccc(Cl)c2)N3S(=O)(=O)c2ccc(C)cc2)cc1,3685
Cc1ccc(NC(=S)NNC(=S)NNc2ccccc2)cc1C,3689
Nc1nnc2cc(Br)ccc2n1,2958
CCCCn1nnnc1C(c1ccccc1)N1CCN(C(=O)c2ccco2)CC1 (configuration not stated),4210
CCc1nc2c(OCc3ccc(C(=O)OC)cc3)cccn2c1N(C)C(=O)C(C)C,3994
COc1ccc(CN2C[C@@H](CO)O[C@@H](n3cnc4c(NCc5cc(OC)c(OC)c(OC)c5)ncnc43)C2)cc1,2898

# Looked up by structure from above:
SMILES,Autofluor counter
C[C@@H]1CN([C@H](C)CO)C(=O)c2cc(Br)cnc2O[C@@H]1CN(C)C(=O)c1cccc(F)c1,4140
CCOC(=O)Cn1cc(Cn2c3ccccc3c(=O)n2C(C)C)nn1,5933
CC1(C(=O)O)CCCN1C(=O)c1cccc(OC(F)(F)F)c1 (configuration not stated),3511
Cc1cccc(C)c1NC(=O)C(c1ccccc1OC(F)(F)F)N1CCN(c2ccc(F)cc2)CC1 (configuration not stated),5533
Nc1nc2ccc(Br)cc2s1,3059
COc1cccc(C(c2nnnn2C(C)(C)C)N2CCC3(CC2)C(=O)NCN3c2ccccc2)c1OC (configuration not stated),5636

# In the list so far, these contain a cyano group:
SMILES,Autofluor counter
C[C@@H]1CN([C@H](C)CO)C(=O)CCCn2cc(nn2)CO[C@H]1CN(C)S(=O)(=O)c1ccccc1C#N,3404
N#CCOc1ccccc1CNC[C@H]1O[C@@H](n2cnc3c(=O)[nH]c(N)nc32)[C@H](O)[C@@H]1O,5744

# Further records
SMILES,Autofluor counter
Nc1ccc(CCCC(=O)NCc2cccnc2)cc1,3886
CCc1nc2c(OCc3ccccc3)cccn2c1N(C)C(=O)c1ccc(OC)cc1,2982
O=S1(=O)CC(N2CCCC2)CN1CCc1ccccc1 (configuration not stated),4379
CC(O)(c1ccc(F)c(F)c1)c1nc(-c2cc(F)cc(F)c2)cs1 (configuration not stated),3908
COc1ccc(S(=O)(=O)Nc2ccc3c(c2)[C@H]2C[C@H](CC(=O)NCC4CC4)O[C@@H](CO)[C@H]2O3)cc1,3384
OC(c1ccc(F)cc1)c1ncc(-c2cccc3ccccc23)[nH]1 (configuration not stated),3831
COc1cc(-c2cc(C(=O)O)c3cc4ccccc4cc3n2)cc(OC)c1OC,3330
CC(=O)Nc1ccc2nc(NC(=O)CS(=O)(=O)c3ccc(F)cc3)sc2c1,3914
CC1(c2ccc(Cl)cc2Cl)NC(=O)N(CC(=O)NCCC2=CCCCC2)C1=O (configuration not stated),3555
COc1ccccc1-c1cnc(C(O)c2cccc(F)c2)[nH]1 (configuration not stated),3867
CCN(CC)CCNc1ccc(CO)c2oc3cc(Cl)ccc3c(=O)c12,3830
COc1cc(C(=O)N2CCCCC2c2cc(C(=O)NC(C)C)no2)cc(OC)c1C (configuration not stated),3776
COc1ccc(S(=O)(=O)N2CCC(C(=O)NCCC(=O)NCc3ccccn3)CC2)cc1,3623
C[C@H]1CN([C@@H](C)CO)C(=O)CCCn2nncc2CO[C@H]1CN(C)C(=O)Cc1ccccc1,3616
O=[N+]([O-])c1cnccc1-n1nnc2ccccc21,4081
CCCCCC(=O)N1C[C@@H](O)[C@H](n2cc(-c3ccc(F)cc3)nn2)C[C@@H]1c1ccc(OC)cc1,3453
CC(C)(C)c1ccc(S(=O)(=O)Nc2ccc(C(O)(C(F)(F)F)C(F)(F)F)cc2)cc1,3800
COc1ccc(CCNC(=O)CN(c2ccccc2)S(=O)(=O)c2ccccc2)cc1,3778
CC(C)(C)c1ccc(CC(=O)N2CCC2(C)C(=O)NS(=O)(=O)c2ccc(Cl)cc2)cc1 (configuration not stated),3771
N#Cc1ccc(C(=O)N2CCCCC2c2cc(C(=O)Nc3cccc(C#N)c3)no2)cc1 (configuration not stated),3827
FC(F)(F)c1cccc(-c2cc3nc(NCCOc4ccccc4)ccn3n2)c1,3668
CN(C)c1cccc(NC(=O)C2Cc3c(-c4ccc(Cl)cc4)ccnc3O2)c1 (configuration not stated),2963
Nc1ccn([C@@H]2O[C@H](CNCc3cccc4c3sc3ccccc34)[C@@H](O)[C@H]2O)c(=O)n1,3353
Cc1nc2cc(NC(=O)C3(C)CCCN(C(C)C)C3)ccc2o1 (configuration not stated),2995
COc1ccc(OCC(=O)N2CCCC(Nc3ccc(C)c(C)c3)C2)cc1 (configuration not stated),4225

# Going on with the list:
SMILES,Autofluor counter
CN(C)c1ccc(-c2ccnc3c2CC(C)(C(=O)NCc2ccco2)O3)cc1 (configuration not stated),3848
Nc1cc(=O)n(Cc2ccco2)c(=S)[nH]1,3738
S=C(NCCCc1cnc[nH]1)NCCCN(Cc1ccc(Cl)cc1)c1ccc(Br)cn1,3678
O=C(NC(c1ccc(Cl)cc1)c1cnccn1)C1CCN(Cc2ccccc2)CC1 (configuration not stated),3491
O=C(Nc1ccccc1OC(F)F)c1ccc(N2CCCC2=O)cc1,3084
O=C1NC[C@@H](CCCCN2C[C@H](Cc3ccc(O)cc3)N(CCc3ccc(O)cc3)C(=O)C2=O)N(CC2CCCCC2)C1=O,5301
COc1ccc(CN2C(=O)COc3ccccc3C2c2nc3ccccc3[nH]2)cc1 (configuration not stated),5102
CCc1nc2ccc(C(=O)N3CCN(C(C)=O)CC3)cn2c1N(CC)C(C)=O,3678
CNc1cncc(-c2cccc(C(=O)NC3CC3)c2)n1,3011
O=c1c2cc(F)ccc2sn1-c1ccccc1Cl,3415
CC(=O)c1cccc(NC(=O)C(C)Sc2nnc3ccccn23)c1 (configuration not stated),3950
CCNC(=O)C1(C)CCCN(C(=O)c2cc(-c3cccs3)oc2C)C1 (configuration not stated),3106
O=C(NCCCn1ccnc1)c1[nH]c(C(F)(F)F)nc1-c1ccccc1,5706
CCOC(=O)[C@]12CCCC=C1N(Cc1ccc(Cl)cc1Cl)C(=O)[C@H](CC(=O)N1CCC(c3ccccc3)CC1)C2,5499
COCOc1cccc(CN2CCC(C)(Oc3cccc(C#N)c3)C2)c1 (configuration not stated),3457
CC1(C(=O)NCc2ccccc2)Cc2c(-c3cccc(C(N)=O)c3)ccnc2O1 (configuration not stated),3545
C[C@H](CO)N1C[C@H](C)[C@H](CN(C)S(=O)(=O)c2ccccc2C#N)OCc2cnnn2CCCC1=O,3684
COCCCN1C(=O)C(CC(=O)NCCCN(C)C)CC(C(=O)N(C(C)C)C(C)C)=C1C (configuration not stated),5765
Cc1ccc2nc(-c3cccc(Br)c3)c(Cc3ccccc3C(F)(F)F)n2c1,6407
C[C@H](CO)N1C[C@H](C)[C@@H](CN(C)C(=O)C2CCCCC2)OCc2cn(nn2)CCCC1=O,3465
COc1cccc(C(=O)NNS(=O)(=O)c2ccccc2)c1,3841
COc1ccc(C(=O)N2CCCC(C)(C(=O)NS(=O)(=O)C3CC3)C2)cc1 (configuration not stated),3564
COc1ccc(OC)c(NC(=O)C2(C)CCN2CCc2ccccc2)c1 (configuration not stated),3331
Cc1nccn1-c1ccc(NC(=O)[C@H]2O[C@@H](n3ccc(=O)[nH]c3=O)[C@H](O)[C@@H]2O)cc1,5142
Cc1ccc(S(=O)(=O)N2C[C@H]3C(=O)C[C@@H](c4ccccc4)N(S(=O)(=O)c4ccc(C)cc4)[C@H]3C[C@H]2c2cccc(Cl)c2)cc1,3654
Cc1ccc(C)c(N2C(=O)c3ccc(C(=O)Nc4ccccn4)cc3C2=O)c1,3891
COc1cc2ccc(C=O)cc2cc1OC,3778
COC(=O)C1(C)CCCC2(C)C3CCC(C(C)C)C(CO)C3C(CO)CC12 (configuration not stated),2943
CCC(=O)N1CCC(C)(C(=O)Nc2nccc3ccccc23)C1 (configuration not stated),2905

# Some of the entries above in a different format.
canonical_smiles | Autofluor counter
COC(=O)C[C@@H]1C[C@@H]2c3cc(NS(=O)(=O)c4ccc(F)cc4)ccc3O[C@@H]2[C@@H](CO)O1 | 2909
COc1ccccc1-c1cnc(C(O)c2cccc(F)c2)[nH]1 (configuration not stated) | 3867
O=[N+]([O-])c1cnccc1-n1nnc2ccccc21 | 4081
C[C@H](CO)N1C[C@H](C)[C@H](CN(C)S(=O)(=O)c2ccccc2C#N)OCc2cnnn2CCCC1=O | 3684
